rRNA inh HTS = inhibits bacterial ribosomal RNA function over humanized ribosomes | 350,000 compounds, 1.6% hits | GFP signal change (wild-type ribosome), % (no concentration beside the values) | E. coli WT GFP vs humanized-ribosome RFP mutants, fluorescence, 24 h; active compounds read low; DMSO median 0, no signal -100;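 active = significant combined selectivity score with lowered wild-type GFP, culture density cut under 30%, mutant RFP and density less affected; inactive = any of these conditions unmet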; note: one replicate is shown; some compounds called inactive have numbers as strong as hits
Vif A3G = inhibitors of Vif binding to APOBEC3G peptide, primary screen, biochemical, TR-FRET, GST-Vif 1-94, biotin-A3G peptide, dose response retest (AID 1117319) | 260,000 compounds, 0.57% hits | inhibition, %, or IC50 in µM where a hit was titrated | TR-FRET GST-Vif / biotin-A3G peptide binding; higher % means a stronger effect; test concentration not given here; strong numbers were not always called active;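 active = above the screen mean plus three standard deviations and confirmed in dose response; inconclusive = results disagree or hit not tested in dose response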;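 note: Vif residues 1-94 fused to GST binding biotinylated APOBEC3G peptide 110-148; 0% = full assay without inhibitor and 100% = GST in place of GST-Vif; retest series ran down from 100 µM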
T cruzi inh = T. cruzi replication inhibition. T. cruzi beta-gal in NIH3T3, luminescence, 90 h. inhibition, % (concentration not given with the values). 300,000 compounds, 1.4% hits;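 active = mean inhibition across valid replicates above about 55%, limit read from the data; inconclusive = mean below that limit but half or more replicates reach it; inactive = mean below it, under half of replicates reach it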;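 note: signal also drops with host cell toxicity which is not excluded here; 0% = plate median of DMSO wells and 100% = zero luminescence signal; higher percent means less beta-gal luminescence so fewer parasites; stock transfer was 50 nL into about 50 µL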
RanGTP-Imp inh = disruptors of Ran-importin-beta complex formation – biochemical, FRET, CFP-Ran, YFP-importin-beta, homogeneous, primary screen; cell-free CFP-Ran/YFP-importin-beta FRET ratio; inhibition, % (concentration not given with the values); 300,000 compounds, 1.1% hits; AID 2216;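 active = most replicates above 15%; inconclusive = exactly half above 15%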;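 note: 0% = DMSO wells and 100% = Ran loaded with GDP instead of GTP; wells of about 40 µL received 100 nL stock; the first replicate is given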
A1 inh = inhibitors of the anti-apoptotic protein A1, read as caspase activation; MEF A1-2A-BIM cells, Caspase-Glo 3/7 luminescence, 3 h; percent of clofoctol response, vehicle zero; caspase activation, % (no concentration beside the values); 330,000 compounds, 0.066% hits; AID 2462;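 active = over half of replicate activation scores above 10%, or exactly half above 10 with the replicate mean above 10; inconclusive = replicate mean below 10 yet half the replicates above 10; inactive = over half of replicates below 10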;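 note: wells of about 30 µL received 50 nL stock; many hits fall short of the cut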
Beta apoptosis = blocks beta cell apoptosis; INS-1E cytokine-induced death, ATP luminescence, 48 h; percent of positive-control rescue, neutral wells zero; protection from apoptosis, % (test concentration not listed); 300,000 compounds, 0.8% hits; AID 435005;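 active = all replicates at 75% or more, or half of them and the mean; inconclusive = half reach 75% but not the mean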;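 note: 0% = cytokine-treated negative control wells and 100% = positive control rescue; higher means more ATP so stronger rescue from cytokine killing; wells of about 40 µL received 100 nL stock; the first replicate is given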
MLL AF4-AF9 inh = inhibitors of human MLL-AF4/AF9 interaction; P42568; AlphaScreen, biotin-AF4 peptide binding to FLAG-AF9; inhibition, % at 10 µM; 350,000 compounds, 0.47% hits;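 active = every replicate reaching a set inhibition limit, whatever the replicate mean, cut at about 25% in these data; inconclusive = mean inhibition reaches that limit but some replicates miss it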;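 note: 0% = plate neutral control median and 100% = total signal loss; the record names both 10 and 1 µM as test concentration; the first replicate is given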
Target sequence (P42568 whole entry, looked up): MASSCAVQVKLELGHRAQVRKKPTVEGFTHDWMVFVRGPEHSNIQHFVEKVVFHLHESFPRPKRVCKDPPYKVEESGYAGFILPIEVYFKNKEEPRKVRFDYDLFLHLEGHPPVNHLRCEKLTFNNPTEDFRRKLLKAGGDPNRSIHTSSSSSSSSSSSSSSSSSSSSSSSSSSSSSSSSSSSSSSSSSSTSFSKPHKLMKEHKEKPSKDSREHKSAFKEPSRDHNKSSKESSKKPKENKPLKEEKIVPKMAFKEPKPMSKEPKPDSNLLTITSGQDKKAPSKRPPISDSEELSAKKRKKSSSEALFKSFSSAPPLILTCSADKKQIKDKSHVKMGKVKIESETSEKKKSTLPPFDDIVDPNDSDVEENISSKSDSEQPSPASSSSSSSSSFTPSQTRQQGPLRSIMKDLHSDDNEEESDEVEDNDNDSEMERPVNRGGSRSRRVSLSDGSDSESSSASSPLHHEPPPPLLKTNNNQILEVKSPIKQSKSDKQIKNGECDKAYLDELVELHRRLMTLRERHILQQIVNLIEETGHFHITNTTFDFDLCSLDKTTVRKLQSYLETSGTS
Calb FLC = C. albicans growth modulation with fluconazole; AID 1979; C. albicans CaCi-2 (fluconazole-resistant clinical isolate) + fluconazole, Alamar Blue growth, 48 h; growth inhibition, % (no concentration beside the values); 300,000 compounds, 0.57% hits;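 active = most replicates above 75%; inconclusive = exactly half above 75%; inactive = most below 75%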;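 note: all wells also contain fluconazole at 8 µg/ml as a sub-toxic cotreatment; 0% = median of DMSO wells and 100% = median of geldanamycin control wells; wells of about 8 µL received 7.5 nL stock; the first replicate is given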
rRNA inh HTS OD600 = second read-out of rRNA inh HTS, no call of its own (marks repeat the call); OD600 change, %; measured here: OD600 growth;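 optical density of the mix in the first replicate; 0 = DMSO median and -100 = no signal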
rRNA inh HTS RFP = also measured in rRNA inh HTS; calls as there; RFP signal change, %; measured here: RFP humanized mutant strains;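 first replicate; 0 = DMSO median and -100 = no signal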
* marks the source's active call; other numbers are inactive results; ? = inconclusive; . = not tested or not shown; & = joins results of further samples. This is a subset; the hit share may differ from the screen's.

Structure	rRNA inh HTS	rRNA inh HTS OD600	rRNA inh HTS RFP	Vif A3G	T cruzi inh	RanGTP-Imp inh	A1 inh	Beta apoptosis	MLL AF4-AF9 inh	Calb FLC
Nc1c(-c2ccccc2)cnn1-c1cccc(Cl)c1	-7	-19	-2.6	-4%	-6	?	-10	7	1.5	-5
CCOC(=O)C1CCN(C(=O)Nc2ccc3nc(C)c(C)nc3c2)CC1	.	.	.	9%	2	-8.1	1.0	-1	.	11
Cc1ccc(S(=O)(=O)N2CCOCC2)cc1C(=O)Nc1ccccc1N1CCOCC1	2	-1	1.6	10%	.	.	0.3	-6	2.0	.
C=CCn1c(-c2cccs2)nc2nc3ccccc3nc21	.	.	.	2%	0	12	0.1	0	.	6
COc1cccc(CNS(=O)(=O)c2ccc3c(c2)N(C(C)=O)CCS3)c1	-10	-8	1.6	5%	1	3.8	0.8	0	0.6	19
Cc1nn2cc(-c3ccc(Cl)cc3)nc2s1	.	.	.	2%	12	1.2	-12	1	.	1
CC(=O)N(c1ccc(C(C)C)cc1)C1C=CS(=O)(=O)C1 (stereo not given)	.	.	.	6%	-2	0.9	-0.4	11	.	-23
CN(CCC#N)C(=O)COC(=O)c1nn(-c2ccccc2)c(=O)c2ccccc12	-3	-6	1.7	-4%	-7	-0.6	0.0	-2	0.6	23
O=C(Cc1c[nH]c2ccccc12)Nc1ccccc1N1CCOCC1	-32	-40	-10	4%	-5	3.1	0.1	-1	2.7	37
Cc1ccc(CS(=O)(=O)CCC(=O)NCCN2CCCCC2C)cc1 (stereo not given)	.	.	.	3%	3	2.3	-0.6	1	.	-2
O=C(N[C@@H]1C/C=C\C[C@@H](CC(=O)N(CCO)Cc2ccccc2)C(=O)NC[C@H](c2ccccc2)OC1=O)OCC1c2ccccc2-c2ccccc21	0	-5	-17	.	.	.	0.0	11	-2.1	.
O=C(Cc1ccccc1)NNC(=O)Nc1ccccc1	12	9	-0.8	12%	-20	-1.9	-1.0	-4	0.6	2
CCOC(=O)c1sc(-c2ccccc2)cc1N	.	.	.	-21%	11	0.1	-1.3	-4	.	-49
Cc1cc(C)n2cc(CSc3ncccc3C(=O)O)nc2n1	5	7	-3.9	5%	-2	-2.2	0.3	-4	.	-6
COc1ccc(-c2nnc(OCc3ccccc3)c3ccccc23)cc1	2	0	0.7	.	19	-5.2	0.7	12	1.5	-9
COc1ccc(OC)c(NC(=O)Cn2c(CCC(=O)O)ccc2-c2cccs2)c1	.	.	.	4%	-1	0.0	-1.0	-1	.	4
O=C(O)c1ccc(N/N=C/c2cn(-c3ccccc3)nc2-c2cccs2)cc1	-28*	-18*	-5.3*	21%	.	.	-5.0	-1	3.9	1
COc1ccc(C(=O)NC2CC3CCCC(C2)N3CC(C)C)cc1 (stereo not given)	14	8	-0.1	68%	-5	3.8	0.6	-3	-7.1	1
CC(=O)N1N=C(c2ccco2)CC1c1ccc(Br)cc1 (stereo not given)	2	0	1.2	.	-8	-1.5	0.3	-1	1.6	1
O=C(O)/C=C/C(=O)N1CCN(C(=O)/C=C/C(=O)O)CC1	6	15	-3.7	19%	-9	5.7	-0.2	-1	3.1	4
CN(Cc1ccc(OC(F)F)cc1)Cc1nc2c(Br)cc(Br)cc2c(=O)[nH]1	-11	-16	0.3	.	13	1.0	0.0	1	-2.9	36
CCOc1ccccc1N1CCN(c2ncnc3scc(-c4ccc(OC)cc4)c23)CC1	4	19	3.3	.	61*	-0.2	0.5	4	0.8	-6
C=CCC[C@H](Cc1ccc(F)cc1)C(=O)OC[C@@H](NC(=O)[C@H](CC=C)CC(=O)NCCO)c1ccccc1	5	-9	9.2	.	.	.	-0.2	3	-6.5	.
Cc1ccc2c(C)nc(N/C(N)=N/S(=O)(=O)c3ccc([N+](=O)[O-])cc3)nc2c1	9	19	-3.0	0%	55*	-4.7	-0.5	4	0.7	-8
C[C@H]1CN=C2N(CCNC(=O)CCC3CCCCC3)[C@H](Cc3ccc(O)cc3)CN21	2	7	-0.5	-3%	-23	1.7	0.3	-2	-1.5	-28
CCC(Sc1nc(C)cc(=O)[nH]1)C(=O)Nc1nc(-c2ccccc2)cs1 (stereo not given)	.	.	.	6%	-24	.	0.1	-1	.	13
O=C(Nc1cccc(S(=O)(=O)N2CCCCC2)c1)C1CC(=O)N(Cc2ccco2)C1 (stereo not given)	-8	1	3.7	13%	5	40*	-0.3	-3	4.7	-8
C[C@]12CCC3C(CC=C4C[C@@H](O)CC[C@@]43C)C1CCC2[C@]1(C)CCC(=O)O1 (stereo not given in full)	-24	-44	19	.	-27	0.0	0.9	-2	1.2	-3
COc1ccc(CNC(=O)CCCC(=O)Nc2cccc(Br)c2)cc1	2	2	0.5	1%	-2	-0.7	0.3	-6	2.9	-32
CC(=O)Nc1nonc1-c1nc2ccccc2n1CC1CC1	.	.	.	-5%	6	4.7	-1.5	14	.	-3
O=C(COc1ncnc2cc([N+](=O)[O-])ccc12)NC1CCCCC1	7	11	0.2	-5%	30	-2.0	0.4	-4	-2.5	-3
COc1cc(CNn2cn[nH]c2=S)cc(Cl)c1OCc1ccc(F)cc1	-46	-72	-28	.	5	1.5	0.1	1	0.9	8
COc1ccccc1C(=O)NC(=S)Nc1cccc2cc(O)ccc12	-10	-7	3.8	.	-3	-1.0	0.5	-2	0.8	20
O=C(NCC1(c2ccccc2)CCCC1)c1ccccc1	3	3	0.5	-1%	10	0.6	0.2	5	-1.4	-7
Cc1c2ccccc2cc[n+]1CCCS(=O)(=O)[O-]	.	.	.	10%	-7	1.3	-0.7	-1	.	4
O=c1onc(-c2ccc(Cl)cc2Cl)n1-c1cccnc1	3	6	-4.7	-7%	3	-0.5	0.5	-13	0.8	-4
CC(OC(=O)c1cc2sccc2n1C)C(=O)NCc1ccco1 (stereo not given)	-5	-6	-5.4	3%	8	1.7	0.2	1	-1.7	-15
CNC(=O)c1ccc(-c2cc3onc(-c4ccccc4)c3c(=O)n2C)cc1	-28*	-14*	-8.4*	.	.	.	-1.0	3	0.2	.
OC[C@H]1O[C@@H](n2cnc3c(Nc4ccccc4)ncnc32)[C@H](O)[C@@H]1O	.	.	.	?	-15	1.5	0.5	1	0.7&-3.8	.
O=C(NC(=S)N1CCOCC1)c1cn(-c2ccccc2)nc1-c1ccccc1	-19*	-11*	5.2*	16%	.	.	0.5	6	2.4	.
CN(C)Cc1c(C(=O)N/N=C/c2cccnc2)nnn1-c1nonc1N	15	12	1.5	.	2	3.9	-1.7	-4	-0.5	-2
O=C(CCc1ccccc1)NNC(=O)COc1ccc([N+](=O)[O-])cc1	15	5	5.8	0%	-4	-1.5	-0.6	1	1.3	-5
Nc1nc(SCC(=O)NCc2ccccc2Cl)[nH]c(=O)c1NC(=O)c1ccccc1F	.	.	.	24%	-10	-1.7	0.2	.	.	-10
Cc1oc2cc3oc(=O)c(CCC(=O)NCCN4CCOCC4)c(C)c3cc2c1C	.	.	.	.	0	1.2	0.1	8	-0.6	-2
O=C(c1cccc(S(=O)(=O)N2CCOCC2)c1)N1CCN(Cc2ccc3c(c2)OCO3)CC1	5	-1	2.5	-3%	-3	-4.2	0.8	-2	2.4	-6
N#CCn1cnc2sc(-c3ccccc3)cc2c1=O	5	15	5.0	.	-9	?	0.1	-2	-1.2	7
O=C(NCC1CC1)C1(C(F)(F)F)C/C(=C\Cc2ccccc2)CCCO1 (stereo not given)	1	-2	1.1	.	-8	0.1	-0.1	-5	0.6	4
CCS(=O)(=O)c1nc(S(=O)(=O)c2ccc(C)cc2)c(N2CCC3(CC2)OCCO3)s1	-8	-8	-1.0	.	-2	-1.5	-0.3	7	3.7	2
CN(CC(=O)NCc1ccc2c(c1)OCO2)S(=O)(=O)c1ccc(F)cc1	6	12	4.7	.	7	3.6	0.5	-1	-3.1	-3
O=C(C1CCCCC1)N1CC(=O)N2CCc3ccccc3C2C1 (stereo not given)	.	.	.	7%	-12	21*	0.4	-3	.	.
CCc1nc(Nc2ccc3c(c2)OCO3)c2oc3ccccc3c2n1	.	.	.	17%	33	4.6	-0.7	5	.	-11
COc1ccccc1C(=O)NCCC(=O)NCCC12CC3CC(CC(C3)C1)C2	-51	-73	-14	.	2	-4.1	-0.2	0	0.6	-35
Cc1ccc(S(=O)(=O)NC(=O)Nc2nccs2)cc1	6	4	-0.5	0%	0	3.2	0.0	0	-0.1	-1
COC(=O)C1CCCCN1C(=O)c1cccc(OC2CCN(C(=O)C3CC3)CC2)c1 (stereo not given)	4	4	4.3	.	-3	-1.0	0.0	4	-0.8	-17
CCOC(=O)C1=C(C)Nc2nc(C)nn2C1c1ccc(C)cc1 (stereo not given)	9	12	0.7	4%	6	1.6	-0.9	1	2.5	0
CCOc1ccccc1NC1=C(Cl)C(=O)N(Cc2ccccc2)C1=O	.	.	.	0%	3	-3.5	-0.7	-6	.	-11
COc1cc(/C=C/C(=O)OCC(=O)c2ccc(OC(F)F)cc2)ccc1O	-3	-10	4.5	-3%	.	.	0.5	-7	2.9	.
CCOc1cc(/C=N/NC(=O)c2nn(C)cc2Br)ccc1OCc1ccccc1	.	.	.	.	16	0.6	-0.4	11	.	1
O=S(=O)(c1ccccc1)N(F)S(=O)(=O)c1ccccc1	6	10	-1.7	.	.	.	-0.3	-7	-0.6	.
COc1ccc(-n2ncc3c2CC(C)(C)CC3NC(=O)c2ccc(OC)o2)cc1 (stereo not given)	-5	3	-3.3	.	12	2.1	-0.7	1	4.9	5

Next section
Structure	rRNA inh HTS	rRNA inh HTS OD600	rRNA inh HTS RFP	Vif A3G	T cruzi inh	RanGTP-Imp inh	A1 inh	Beta apoptosis	MLL AF4-AF9 inh	Calb FLC
CCn1c(SCC(=O)Nc2nc(C)c(C)s2)nc2cccnc21	.	.	.	3%	5	5.6	-0.3	-9	.	-6
O=S(=O)(Nc1ccccc1N1CCCCC1)c1ccc(Cl)s1	.	.	.	1%	9	-0.7	-0.9	-7	.	-8
COCCC(=O)Nc1ccc2c(c1)CN(C(=O)CSC)CC2	9	6	-6.8	0%	-4	-0.7	0.2	-1	0.1	-2
O=C(O)CSc1nc2ccccc2s1	-1	3	2.3	-2%	-1	1.6	-0.4	-5	-3.2	-10
CCc1nnc(NC(=O)CSc2nnc(Cc3cc(=O)[nH]c(=O)[nH]3)n2-c2ccc(OC)cc2)s1	8	16	-1.0	5%	-16	6.9	0.1	6	3.4	6

Screens deposited in PubChem BioAssay by several laboratories.
